# HRas wt GTP – modulators of GTP binding to human HRas wildtype. P01112. GST-Ras wt beads, Bodipy-FL-GTP binding, flow cytometry; actives lie on both sides. GTP binding activity, % at 10 µM. 190,000 tested, 0.14% active;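 active = GTP binding activity at least 20% away from the 100% baseline, either lowered as inhibitor or raised as activator; inconclusive = flagged as likely green fluorescent, judged across all proteins in the well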;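 also: 0% = unlabeled GTP competition control and 100% = no-compound control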
# Target sequence (P01112 whole entry, looked up): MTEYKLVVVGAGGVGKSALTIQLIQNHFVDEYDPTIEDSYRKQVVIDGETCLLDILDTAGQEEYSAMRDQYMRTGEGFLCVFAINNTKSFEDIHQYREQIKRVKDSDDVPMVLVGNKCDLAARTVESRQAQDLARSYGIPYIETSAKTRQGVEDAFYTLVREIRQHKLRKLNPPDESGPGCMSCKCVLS
# Rab7 wt modul – modulators of GTP binding to dog Rab7 wildtype GTPase; 190,000 tested, 0.055% active; GST-Rab7 beads, fluorescent GTP binding, flow cytometry; actives lie on both sides; untreated = 100%, excess cold GTP = 0%; GTP binding activity (percent of control), % at 10 µM;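 active = fluorescent GTP binding to Rab7 beads changed by at least 20 points from the 100% baseline, either direction, mostly lower; inconclusive = compound itself probably fluorescent, or too few beads counted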;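 also: median green fluorescence of bound Bodipy-FL-GTP per Rab7 bead population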
# Rab2 wt GTP – changes GTP binding to wildtype dog Rab2A, up or down. GST-Rab2 wt beads, Bodipy-GTP binding, flow cytometry. 190,000 tested, 0.19% active. GTP binding activity, % at 10 µM. P61105;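 active = GTP binding activity at least 20 points away from 100%, either lowered or raised; inconclusive = signal likely due to the compound's own green fluorescence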;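 also: 0% = beads with excess unlabeled GTP and 100% = no-compound control corrected for plate trend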
# Rac1 act GTP bind – modulators of GTP binding to human Rac1 activated mutant; P63000; GST-Rac1 activated beads, fluorescent GTP binding, flow cytometry; actives lie on both sides; 100% means binding = to untreated wells; percent activity (GTP binding), % at 10 µM; 190,000 tested, 0.11% active;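 active = GTP binding at least 20 percentage points away from the 100% baseline, in either direction, so actives lie on both sides; inconclusive = Compound likely fluorescent itself, or too few beads counted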
# Pf gametocyte – P. falciparum stage V gametocyte viability inhibition; AID 743093; 150,000 tested, 0.065% active; P. falciparum stage V gametocytes, ATP luminescence, 24 h; inhibition, % at 10.9 µM;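 active = inhibition above the mean plus 3 SD of compounds within the control limits, set per campaign, cut at about 38% in these data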;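 also: 0% = DMSO wells and 100% = medium only without gametocytes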
# Rac1 wt modul – modulators of human Rac1 wildtype GTP binding; P63000; GST-Rac1 beads, fluorescent GTP binding, flow cytometry; actives lie on both sides; 0 = cold GTP competed, 100 = untreated; GTP binding activity (% of control), % at 10 µM; 190,000 tested, 0.27% active; AID 757;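 active = GTP binding activity at least 20 points away from the 100% control level, either lower or higher; inconclusive = compound flagged as likely green fluorescent, judged across all proteins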
# Avidin fluor – avidin bead compound fluorescence profile. Avidin beads, compound fluorescence 488/530 nm, flow cytometry; stronger effect = higher value. fluorescence (KMESF) at 10 µM. 220,000 tested, 0.38% active. AID 1775; in the data active = fluorescence above about 47; also: inactives centre near 10
# Cdc42 wt – changes GTP binding to wildtype human Cdc42; GST-Cdc42 beads, Bodipy-GTP binding, flow cytometry; actives lie on both sides; percent activity (GTP binding), % at 10 µM; 190,000 tested, 0.2% active;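 active = percent activity GTP binding at least 20 points away from the 100% baseline, either down as inhibitor or up as activator; inconclusive = compound flagged as likely green fluorescent from well-wide comparison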;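 also: median bead fluorescence of bound Bodipy-FL-GTP at 100 nM; 0% = excess unlabeled GTP control and 100% = no compound control; below 100% means less GTP binding so inhibitor and above means activator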
# Target sequence (P60953 whole entry, looked up): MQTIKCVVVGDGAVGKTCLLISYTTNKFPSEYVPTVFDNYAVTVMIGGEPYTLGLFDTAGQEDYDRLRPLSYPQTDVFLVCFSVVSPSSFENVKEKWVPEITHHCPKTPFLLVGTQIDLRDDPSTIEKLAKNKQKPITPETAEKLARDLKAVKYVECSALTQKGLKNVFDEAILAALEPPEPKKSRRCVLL
# An asterisk follows results filed as active; ? = inconclusive; . = no result given; & = joins results of further samples.
mol,Rab2 wt GTP,Avidin fluor,Rac1 wt modul,Pf gametocyte,Rac1 act GTP bind,Rab7 wt modul,Cdc42 wt,HRas wt GTP
NC(=O)c1sc2nc(-c3ccco3)ccc2c1N,96,31,97,-28,96,98,97,96
CCc1nc(SCC(=O)Nc2c(C)nn(C)c2C)c2cnn(-c3ccccc3)c2n1,100,34,104,.,100,103,105,101
COC(=O)CSc1ncc(C#N)c(N)n1,98,33,96,8,98,94,97,96
COc1ccc(NC(=O)c2c3c(nc4ccccc24)CCC3)cc1S(=O)(=O)N1CCOCC1,98,2,101,.,96,95,102,98
CCCCc1ccc(NC(=O)CC(C)(C)C)cc1,100,2,106,.,101,103,101,102
Nc1c(-c2ccc(F)cc2)cnn1C1CCS(=O)(=O)C1 (configuration not stated),102,7,102,.,100,105,102,101
COc1cccc(C(=O)Nc2cccc(OC(C)=O)c2)c1,92,12,92,-6,93,91,95,94
O=c1oc2ccccc2cc1-c1csc(Cc2nc(-c3ccc(Cl)cc3)cs2)n1,100,10,102,.,97,98,103,101
COC(=O)CCc1sc(Nc2ccccc2)nc1-c1ccc(OC)cc1,100,12,101,.,101,99,100,101
CCc1nc(SCC(=O)Nc2nccs2)c2oc3ccccc3c2n1,99,5,104,18,100,97,101,99
CC(=O)NS(=O)(=O)c1cccnc1Nc1cccc(Cl)c1,102,3,103,9,99,102,102,101
CC(C)NC(=O)NC(=O)CSc1nnc(C(F)(F)F)n1C,102,9,100,-17,96,99,97,100
COc1ccc(-c2cc(C(F)(F)F)nc(NCc3ccco3)n2)cc1OC,?,15,?,.,?,?,?,?
COc1ccc(OC)c(NC(=O)COC(=O)c2cc3c(s2)CCC3)c1,97,15,93,.,93,104,92,96
CC1(OC(=O)CCc2ccccc2)C(=O)C=C2C=C(c3ccc(C#N)cc3)N(CC3CC3)C=C2C1=O (configuration not stated),.,8,.,.,.,.,.,.
Cc1ccc(OCc2nnc(SCC(=O)Nc3ccc4c(c3)OCCO4)n2Cc2ccco2)cc1,104,6,103,.,101,103,105,106
Cc1oc(-c2ccc(-c3ccccc3)cc2)nc1CN(C)C1CCOC1 (configuration not stated),102,3,99,7,95,107,96,97
Cn1c(COc2ccc(Cl)cc2)nc2ccccc2c1=O,95,9,97,.,97,96,97,98
Cc1cc(=O)oc(C)c1C(=O)NCC1CCCO1 (configuration not stated),99,10,96,.,95,98,100,98
Cc1cc(C)nc(Nc2ncc(O)n2-c2ccc(C)c(C)c2)n1,?,56*,?,2,?,?,?,?
CC(=O)c1ccc(NC(=O)c2cnsn2)cc1,99,11,99,-24,98,103,100,99
COC(=O)C1=NN(c2cccc3ccccc23)C2C(=O)N(c3ccccc3OC)C(=O)C12 (configuration not stated),.,3,.,-11,.,.,.,.
Cc1ccc(-c2nc(CN(C)C3CCOC3)c(C)o2)s1 (configuration not stated),97,11,99,-13,98,97,99,98
Cc1cc(-c2csc(NC(=O)c3ccc(C#N)cc3)n2)c(C)n1Cc1ccco1,100,13,105,-35,101,95,101,101
CCCc1nc(NCc2ccccn2)c2nnn(Cc3ccccc3F)c2n1,101,31,101,.,98,101,99,100
Nc1c(-c2ccc(Cl)cc2)cnn1C1CCS(=O)(=O)C1 (configuration not stated),100,6,104,.,99,100,100,101
O=C(COc1cccc(NC(=O)c2ccccc2)c1)c1ccccc1,98,10,99,2,96,105,96,101
COc1ccccc1CN(C)C(=O)C1(c2ccc(Cl)cc2)CC1,97,14,105,.,97,101,98,99
O=C(c1ccco1)N1CCN(c2nc(C3CC3)nc3sc4c(c23)CCCC4)CC1,99,4,99,.,98,98,99,99
Cc1nc2ccc(NC(=O)NCc3ccco3)cc2s1,97,5,97,.,94,96,99,98

# Reformatted with two lines to a compound: 5 of the compounds above.
# Order of results: Rab2 wt GTP	Avidin fluor	Rac1 wt modul	Pf gametocyte	Rac1 act GTP bind	Rab7 wt modul	Cdc42 wt	HRas wt GTP
COc1cccc(C(=O)Nc2cccc(OC(C)=O)c2)c1
    92	12	92	-6	93	91	95	94
COc1ccc(NC(=O)c2c3c(nc4ccccc24)CCC3)cc1S(=O)(=O)N1CCOCC1
    98	2	101	.	96	95	102	98
CCc1nc(SCC(=O)Nc2c(C)nn(C)c2C)c2cnn(-c3ccccc3)c2n1
    100	34	104	.	100	103	105	101
Cc1cc(=O)oc(C)c1C(=O)NCC1CCCO1 (configuration not stated)
    99	10	96	.	95	98	100	98
NC(=O)c1sc2nc(-c3ccco3)ccc2c1N
    96	31	97	-28	96	98	97	96

# The list continues:
mol,Rab2 wt GTP,Avidin fluor,Rac1 wt modul,Pf gametocyte,Rac1 act GTP bind,Rab7 wt modul,Cdc42 wt,HRas wt GTP
Cc1ccc(Nc2nc(N)nc(CSc3nc4ccccc4s3)n2)cc1,92,25,82,.,87,97,83,86
COc1ccc(C(=O)N2CCC(n3c(C)nc4cc(F)ccc43)CC2)cc1,99,5,98,10,97,99,97,96
Cc1sc(NC(=O)c2ccccc2)c(C(c2ccccn2)N2CCN(CCO)CC2)c1C (configuration not stated),102,13,104,.,100,101,101,101
CC1CN=C(N(Cc2ccccc2)C(=O)Nc2ccccc2)S1 (configuration not stated),104,4,108,.,101,104,104,103
O=C(CN1CCCC1)Nc1c2c(nc3ccccc13)N(Cc1ccccc1)CC2,102,35,103,13,100,101,102,102
CC(=O)Nc1ccc(Nc2ncnc(N)c2[N+](=O)[O-])cc1,.,6,.,8,.,.,.,.
C/C(=N\NC(=O)c1ccc(NS(=O)(=O)c2cccs2)cc1)c1ccccn1,.,6,.,.,.,.,.,.
Cn1c(N)c(C(=O)NCc2ccccc2Cl)sc1=S,98,12,101,-5,96,99,103,99
CCCCNC(=S)N/N=C/c1ccc(OCC(=O)Nc2c(C)cc(C)cc2C)c(OC)c1,95,8,98,-2,97,96,101,95
O=C1CC(N2CCC(c3nc4ccccc4[nH]3)CC2)C(=O)N1Cc1ccccc1 (configuration not stated),97,13,94,.,93,94,100,99
COC(=O)c1ccc(NC2c3ncccc3C(=O)N2Cc2cccs2)cc1 (configuration not stated),101,11,101,8,97,107,97,100
CCOC(=O)c1ccc(NC(=O)CSc2nc(C)cc(=O)[nH]2)cc1,103,8,107,.,100,105,101,104
COc1cc(/C=N/NC(N)=O)ccc1OCC(=O)Nc1ccc(C)c(C)c1,97,6,99,-12,99,98,98,102
Cc1ccc(C)c(NC(=O)CCc2ccc(S(=O)(=O)NC3CCCCC3)cc2)c1,100,5,102,-4,100,99,99,100
CCN1CCN(CC(O)COC(C)C)CC1 (configuration not stated),105,29,109,.,101,103,104,104
c1ccc(OCCOCCN2CCc3ccccc3C2)cc1,99,13,101,8,99,96,103,98
CCn1c(COc2cccc(C)c2)nnc1SCC(=O)Nc1cccc(C(=O)O)c1,100,9,94,15,95,99,100,97
O=C(NCC1CCCCC1)c1ccco1,99,8,103,3,100,103,102,100
Cc1ccc(Nc2nc(N)nc(CSc3nnc(-c4ccncc4)o3)n2)cc1,102,14,105,.,98,105,103,105
Cc1nc2sc3c(c2c2nnc(SCC(=O)NCc4ccco4)n12)CCCC3,98,10,99,.,98,97,99,100
Cc1cc(C(F)F)n2ncc(C(=O)NCc3ccccc3F)c2n1,97,4,103,10,104,99,103,98
Clc1cccc(Nc2ncnc3c2cnn3-c2ccccc2)c1,99,5,97,.,99,95,96,97
O=c1[nH]c(CN2CCCCC2)nc2ccccc12,96,33,96,.,96,99,100,99
O=C(COC(=O)c1cc([N+](=O)[O-])ccc1NCCO)Nc1ccc2c(c1)OCO2,96,10,96,0,92,101,91,96
CCOC(=O)c1cnc(SCC)[nH]c1=O,96,15&6,96,-14,94,94,96,97
CCN(CC)S(=O)(=O)c1cc(C(=O)n2cccn2)c(Cl)cc1Cl,103,8,102,-9,99,98,104,102
COC(=O)COc1cccc(NC(=O)c2cccc(C)c2)c1,92,11,90,.,91,101,89,92
CC(C)(C)NC(=O)COC(=O)c1cc(F)c(F)cc1Cl,100,15,101,.,99,97,99,100
Cc1ccc(S(=O)(=O)N(C)C)cc1N,93,11,96,-10,96,93,94,95
COc1ccc(CNC(=O)c2cnn3c(C(F)F)cc(C)nc23)cc1OC,97,6,98,.,97,97,98,96

# Part of the list above in order of length of the SMILES, lowest first.
mol,Rab2 wt GTP,Avidin fluor,Rac1 wt modul,Pf gametocyte,Rac1 act GTP bind,Rab7 wt modul,Cdc42 wt,HRas wt GTP
CCOC(=O)c1cnc(SCC)[nH]c1=O,96,15&6,96,-14,94,94,96,97
Cc1ccc(Nc2nc(N)nc(CSc3nnc(-c4ccncc4)o3)n2)cc1,102,14,105,.,98,105,103,105
CCn1c(COc2cccc(C)c2)nnc1SCC(=O)Nc1cccc(C(=O)O)c1,100,9,94,15,95,99,100,97
Cc1ccc(C)c(NC(=O)CCc2ccc(S(=O)(=O)NC3CCCCC3)cc2)c1,100,5,102,-4,100,99,99,100

# Further compounds
mol,Rab2 wt GTP,Avidin fluor,Rac1 wt modul,Pf gametocyte,Rac1 act GTP bind,Rab7 wt modul,Cdc42 wt,HRas wt GTP
CC(C)N1C(=S)N(Cc2ccco2)C(=O)C1CC(=O)Nc1ccccc1 (configuration not stated),99,19,97,13,98,107,95,101
Cn1c(C(=O)NCC2CCCO2)cc2c(=O)n3ccccc3nc21 (configuration not stated),104,35,102,.,99,102,103,103
Cc1ccc2nc3c(nc2c1)-c1ccccc1C3=O,98,15,95,-7,94,101,101,98
CN1C(=S)N(c2ccccc2)C(=O)/C1=C/c1ccco1,97,1,100,-14,99,97,101,99
O=C(Nc1cnn(Cc2ccc(F)cc2)c1)c1cnn2c(C(F)F)cc(-c3ccccc3)nc12,.,10,.,0,.,.,.,.
COc1ccccc1C(=O)Nc1ccc2oc(-c3ccc(F)cc3)nc2c1,99,8,107,23,97,101,99,102
COC(=O)c1cc2ccsc2n1Cc1ccccc1F,97,11,101,-18,97,99,101,99
N#Cc1ccc(/C=N/NC(=O)c2cc(-c3cccs3)nc3ccccc23)cc1,97,16,103,.,99,96,105,99
CC(C)(C)c1cc(CN(CCO)CCO)cc(C(C)(C)C)c1O,98,10,106,.,101,98,103,100
CC1=C(C(=O)Nc2cccnc2)C(c2cccnc2)n2ncnc2N1 (configuration not stated),103,2,103,.,101,95,99,102
N#Cc1c(N(CCO)CCO)nc(N)c2c(N)nc3c(c12)CC(=O)N3Cc1cccs1,.,7,.,.,.,.,.,.
Cn1c(OCc2ccco2)nc2c1c(=O)n(Cc1ccc(Cl)c(Cl)c1)c(=O)n2C,101,.,102,.,99,100,102,100
CN(Cc1nc2ccc(F)cc2[nH]1)Cc1c(C(=O)N(C)C)nc2ccc(Cl)cn12,100,11,104,-10,96,104,97,102
CC1=C(C(N)=O)C(c2cccc(OCc3ccccc3)c2)n2nnnc2N1 (configuration not stated),101,18,109,.,102,104,104,103
COc1ccc(CNc2nc(-c3cccnc3)nn2C(=O)c2ccco2)cc1,108,7,104,.,101,103,107,106
COC(=O)CCN(C(=O)C12CC3CC(CC(C3)C1)C2)c1ccccn1,101,6,101,.,97,98,97,98
COc1cc(C)c(S(=O)(=O)NCc2ccc3c(c2)OCO3)cc1C,101,6,101,.,97,101,99,99

# Not all compounds are listed; the hit share may differ from the screen's.
